Bioassay records deposited in PubChem BioAssay by Johns Hopkins Ion Channel Center.
KCNQ2 pot = potentiators of rat KCNQ2 potassium channel; Potassium voltage-gated channel subfamily KQT member 2 (Rattus norvegicus), O88943; CHO-K1 KCNQ2, FluxOR thallium flux fluorescence; stronger effect = higher value; B-score at 10 µM; 310,000 tested, 0.54% active;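 active = fluorescence ratio B-score at least 3 SD of library B-scores, with initial fluorescence B-score within 3 SD, cut at about 5.3 in these data; same plate scores as AID 2156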;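 also: B-score of peak minus minimum over baseline fluorescence ratio after K+ and Tl+ stimulus; positive B-score means potentiation of KCNQ2 with more thallium influx and brighter signal; only the inactives scoring about 0 or higher are listed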
Target sequence (O88943 whole entry, looked up): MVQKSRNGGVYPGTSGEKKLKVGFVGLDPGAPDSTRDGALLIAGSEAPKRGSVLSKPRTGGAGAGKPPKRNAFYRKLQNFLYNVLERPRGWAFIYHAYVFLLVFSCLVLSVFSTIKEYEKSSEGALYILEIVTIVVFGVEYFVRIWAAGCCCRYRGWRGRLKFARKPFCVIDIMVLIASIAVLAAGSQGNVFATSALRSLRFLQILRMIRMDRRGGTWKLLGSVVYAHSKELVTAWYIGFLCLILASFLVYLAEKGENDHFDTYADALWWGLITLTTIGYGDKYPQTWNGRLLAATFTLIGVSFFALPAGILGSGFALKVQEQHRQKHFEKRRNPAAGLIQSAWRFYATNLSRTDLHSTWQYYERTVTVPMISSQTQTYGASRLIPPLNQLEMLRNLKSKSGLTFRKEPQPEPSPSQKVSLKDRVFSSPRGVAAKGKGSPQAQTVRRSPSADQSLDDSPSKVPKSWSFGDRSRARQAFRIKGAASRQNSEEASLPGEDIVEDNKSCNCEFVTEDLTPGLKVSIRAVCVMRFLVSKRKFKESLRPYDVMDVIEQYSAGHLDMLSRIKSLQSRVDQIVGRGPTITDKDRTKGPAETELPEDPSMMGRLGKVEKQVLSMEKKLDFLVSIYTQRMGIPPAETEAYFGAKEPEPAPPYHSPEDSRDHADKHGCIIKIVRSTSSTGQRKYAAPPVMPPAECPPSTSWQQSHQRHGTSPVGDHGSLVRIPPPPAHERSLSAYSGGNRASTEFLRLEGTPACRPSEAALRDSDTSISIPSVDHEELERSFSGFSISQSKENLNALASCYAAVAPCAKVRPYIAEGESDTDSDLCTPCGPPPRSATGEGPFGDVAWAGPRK
KCNQ2 pot baseline = further read-out of KCNQ2 pot, marked with its call; B-score; compound at 10 µM; measured here: initial fluorescence intensity artifact check;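 brightness before thallium and not channel activity; 0 = typical well and far values either way flag optical interference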
Active calls of the source: *; / = not tested or not shown. Not all compounds are listed, so the mix of outcomes need not match the whole.

smiles,KCNQ2 pot,KCNQ2 pot baseline
Cc1cc(Cl)ccc1NC(=O)CSc1nnc(-c2ccncc2)n1Cc1ccco1,1.6,0.79
CCCCCC(=O)Nc1nc(C)c(-c2csc(Nc3ccccc3OCC)n2)s1,0.27,-0.63
CN1C(=O)/C(=C/c2ccccc2OCc2ccccc2)NC1=S,0.36,0.69
Cc1cccc(CC(=O)NCCn2c(C)cc3ccccc32)c1,6.9*,-0.54*
COc1cccc(/C=N/NC(=O)CNC(=O)c2ccc3c(c2)OCCO3)c1O,1.3,-0.63
CCC(=O)Nc1ccc(Cl)c(NC(=O)c2c(OC)cccc2OC)c1,1.2,-0.47
O=C1CC(=O)N(CCc2ccc(F)cc2)C(=O)N1,0.63,-0.15
CCOc1ccc(C(=O)Nc2ccc(-c3nc4ccccc4[nH]3)cc2)cc1[N+](=O)[O-],0.09,1.3
CCOC(=O)c1sc(NC(=O)C(C)C)c(C#N)c1C,0.73,-0.46
CC1(C)NC(=O)N(CC(=O)O)C1=O,0.81,1.6
Nc1nc(SCC(=O)NNc2c(Cl)cc(Cl)cc2Cl)n[nH]1,0.86,0.2
COc1ccc([N+](=O)[O-])cc1NC(=O)C(C)OC(=O)c1cccnc1Cl (configuration not stated),0.97,-0.64
CCOc1ccc(NC(=O)Nc2cc(C)ccc2F)cc1,0.02,-0.09
CN(Cc1nc(-c2ccccc2)no1)C(=O)c1ccco1,1,-1.2
S=c1oc(-c2ccncc2)nn1CCc1ccncc1,0.08,-0.35
O=C(NCCc1cccc(F)c1)C1CCN(S(=O)(=O)c2ccccc2)CC1,0.1,0.45
CN(c1ccc(F)cc1)S(=O)(=O)c1ccc(Cl)c(C(=O)OCC(=O)NCc2ccco2)c1,8.8*,-0.25*
CC(=O)Nc1cc(NC(C)=O)c(N=Nc2ccccc2)cc1C,0.72,-3.4
CCc1ccc(OCCCC(=O)Nc2ccc(S(=O)(=O)Nc3cc(C)nc(C)n3)cc2)cc1,0.18,0.05
COc1ccc(C2NC(=S)NC(C)=C2C(=O)N2CCOCC2)cc1 (configuration not stated),1.4,0.76
COc1ccc2cc(C3(C)NC(=O)N(CC(=O)NCC(F)(F)F)C3=O)ccc2c1 (configuration not stated),2.5,-1.4
Oc1ccc(CN2CCCCC2)c2cccnc12,0.21,-1.8
CCNC(=O)NC(C(=O)OC)C12CC3CC(CC(C3)C1)C2 (configuration not stated),0.11,0.63
C/C(Cl)=C\CNC(C)c1ccccc1 (configuration not stated),1.4,0.01
Cc1ccc(NC(=O)c2nc(S(=O)(=O)Cc3ccccc3C)ncc2Cl)cc1C,1.2,-1.9

Grouped by structure, the compounds so far with an aryl methoxy group (5)
smiles,KCNQ2 pot,KCNQ2 pot baseline
COc1cccc(/C=N/NC(=O)CNC(=O)c2ccc3c(c2)OCCO3)c1O,1.3,-0.63
CCC(=O)Nc1ccc(Cl)c(NC(=O)c2c(OC)cccc2OC)c1,1.2,-0.47
COc1ccc([N+](=O)[O-])cc1NC(=O)C(C)OC(=O)c1cccnc1Cl (configuration not stated),0.97,-0.64
COc1ccc(C2NC(=S)NC(C)=C2C(=O)N2CCOCC2)cc1 (configuration not stated),1.4,0.76
COc1ccc2cc(C3(C)NC(=O)N(CC(=O)NCC(F)(F)F)C3=O)ccc2c1 (configuration not stated),2.5,-1.4

Additional compounds
smiles,KCNQ2 pot,KCNQ2 pot baseline
COc1cccc(NC(=O)NCCCN2CCN(c3ccc(F)cc3)CC2)c1,0.65,0.93
CCN(CC)S(=O)(=O)c1ccc(NC(=O)CN(c2cccc(F)c2)S(C)(=O)=O)cc1,0.37,-0.26
CCN(CC)CCCNC(=O)CN1N=C(c2ccc(OC)cc2)CCC1=O,0.19,0.23
CC(=O)Oc1ccccc1N1C(=O)c2ccc(C(=O)O)cc2C1=O,1.7,1.6
Cc1ccc(-c2n[nH]c(=S)n2/N=C/c2cc3c(cc2[N+](=O)[O-])OCO3)cc1,0.18,1.5
CN(CC(=O)Nc1cccc(F)c1)C(=O)c1cccc(S(=O)(=O)N2CCN(c3ccccc3)CC2)c1,2.1,-1.1
COc1ccc(Cc2nnc(NC(=O)CS(=O)(=O)Cc3ccccc3)s2)cc1,0.23,-1.1
CC1=CC(c2ccccc2)n2nc(NC(=O)CCC(=O)O)nc2N1 (configuration not stated),0.25,-1.7
CC(C)(C)c1nnc(NC(=O)CCn2cnc3ccccc3c2=O)s1,2.1,5.1
O=C(c1ccccc1)c1c(O)nc(-c2ccccc2)n(-c2ccccc2)c1=O,2.2,-1
CC(=O)N1CCN(c2ccc(NS(=O)(=O)c3ccc(C)cc3)cc2)CC1,1.6,0.11
Cc1ccc(N2CC(C(=O)N3CCN(Cc4ccc5c(c4)OCO5)CC3)CC2=O)cc1 (configuration not stated),0.38,0.56
CC(c1ccccc1)N1CCN(C(=O)CCl)CC1 (configuration not stated),1.5,0.35
CC(C)OCCCN1C(=O)c2[nH]nc(-c3ccccc3O)c2C1c1cccc(Cl)c1 (configuration not stated),0.62,-2
O=C(COc1coc(CN2CCN(c3ccc(F)cc3)CC2)cc1=O)Nc1ccccc1,0.32,-1.5
CN=c1scc(-c2ccc(Cl)cc2)n1C,0.49,-0.33
O=C(NCc1nnc(SCC(=O)N2CCCCCC2)o1)c1ccco1,0.41,0.38
COC(=O)[C@@]12CCCN1[C@H](c1ccc(-c3ccccc3)cc1)[C@H]1C(=O)N(C)C(=O)[C@H]12,0.14,0.54
S=c1[nH]ccn1Cc1ccccc1,0.25,-0.5
Cn1c(SCCN2CCOCC2)nc2sc3c(c2c1=O)CCCC3,1.9,-1.4
Cc1nc2sc(C#N)c(N)c2c2c1CCCC2,2,0.08
Cc1nc2c(-c3ccccc3)c(C)nn2c(C)c1CCC(=O)N1CCOCC1,0.67,3.5
CC(=O)c1cccc(NC(=S)NC(=O)c2cccc(C)c2)c1,0.33,-0.46
COc1cc2c(cc1OC)CN(Cc1ccc(C)s1)CC2,0.02,1.2
O=C(CSc1nnc(NC(=O)c2c(F)cccc2F)s1)NC1CC1,0.54,-2
C/C(Cn1nnc([N+](=O)[O-])n1)=N\NC(=O)c1cccc(Cl)c1,0.59,0.12
N#C/C(=C\c1ccc(-c2nc3ccccc3s2)o1)C(N)=O,0.03,1.9
COc1ccc(CCN(C)CCCC(C#N)(c2cc(OC)c(OC)c(OC)c2)C(C)C)cc1OC (configuration not stated),1.4,0.04
COc1cccc(C(=O)COc2ccc(NC(=O)c3ccccc3)cc2)c1,0.83,0.33
CC(=NCCCNC1CCCCC1)C1=C(O)CC(C)(C)CC1=O,1.5,-0.45
COc1ccccc1-n1c(CNC(=O)COc2ccccc2)n[nH]c1=S,1.5,-1.9
COc1ccc(N2CCN(S(=O)(=O)c3cc4c5c(c3)C(C)C(=O)N5CCC4)CC2)cc1 (configuration not stated),0.27,-0.46
CC(=O)N(C(C)=O)c1nc2nc(C)cc(C)n2n1,0.08,-0.67
O=C(CSc1nc2ccccc2c(=O)n1Cc1ccco1)NCCN1C(=O)CSC1=O,0.22,0.24
CCCCN(C)C(=O)c1sc2ncn(CC)c(=O)c2c1C,0.46,-0.86
Cc1ccc(-n2nnnc2-c2cnc(-c3cccnc3)nc2C(F)(F)F)cc1,0.33,1.8
CCOC(=O)c1cc2ccccc2n1CCN(CC)CC,0.98,-1.6
O=C(OCn1nnc2ccccc2c1=O)C1=COCCO1,2.1,0
COc1ccc(NC(=O)C2CCCN2C(=O)OC(C)(C)C)cc1 (configuration not stated),0.25,-0.69
CCOc1ccc(S(=O)(=O)Nc2ccccc2C(=O)NCc2ccco2)cc1,1.4,-0.09
Cc1ccc(C)c(NC(=O)NCc2ccccn2)c1,0.68,-2.2
O=C(c1ccco1)N1CCN(C(=O)c2cc3ccccc3oc2=O)CC1,1,0.86
COc1cccc(NC(=O)CCNS(=O)(=O)c2cccc3nsnc23)c1,0.85,-1.3
O=C(Cc1n[nH]c(=O)c2ccccc12)N1CCN(c2ccc(F)cc2)CC1,0.04,-0.68
CCN(CC)S(=O)(=O)c1ccc(-c2nnc(SCC(=O)Nc3nc(C)cs3)o2)cc1,0.66,-0.06
CCCn1nc(C(=O)OCC(=O)Nc2cccc(S(N)(=O)=O)c2)c2ccccc2c1=O,0.34,-0.18
CCN(CC)CCNC(=O)CCn1nc(-c2ccc(Cl)cc2)ccc1=O,1.4,-0.03
CCC(C)NC(=O)C(CCSC)NC(=O)c1ccccc1 (configuration not stated),0.35,-2
Cc1ccccc1N1CCN(C2CCCN(C(=O)CCN3CCCCO3)C2)CC1 (configuration not stated),0.03,-0.79
Cc1c(Cl)cccc1NC(=O)C1NC(=O)CC1c1ccccc1 (configuration not stated),0.87,1.4

(more compounds)
smiles,KCNQ2 pot,KCNQ2 pot baseline
CCc1ccc(N2CC(C(=O)NCc3ccc4c(c3)OCO4)CC2=O)cc1 (configuration not stated),1.4,-0.53
OC1(C#CCN2CCCC2)CCCCC1,0.85,0.41
O=C(O)c1cccc(N2C(=O)c3ccc(C(=O)c4cccc([N+](=O)[O-])c4)cc3C2=O)c1,0.59,2
CCOC(=O)C1=C(c2ccccc2)Nc2ncnn2C1c1cccc(OC)c1OC (configuration not stated),0.3,0.31
COc1ccc(N2CCN(C3CCCN(C(=O)CN4CCCCC4=O)C3)CC2)cc1 (configuration not stated),0.01,-2.3
CCOc1cccc(OCCOCCN(C)C)c1,0.59,-0.05
COc1cc2nc(CN(C)Cc3ccc(Cl)cc3)[nH]c(=O)c2cc1OC,0.06,0.16
CS(=O)(=O)c1ccc2nc(NC(=O)C3CCCO3)sc2c1 (configuration not stated),0.52,-0.06
O=C(Nc1cccc(Cl)c1)O/N=C\c1ccncc1,0.67,-0.01
CN1CCN(Cc2nc3c(c(=O)n(C)c(=O)n3C)n2CCCc2ccccc2)CC1,0.59,2.4
c1ccc(-n2nnc3ccccc32)nc1,0.66,-0.48
Cc1ccc(C(C)C)c(OCc2n[nH]c(=S)o2)c1,3.7,2.2
Cc1noc(C)c1COc1ccccc1C(=O)N(C)CC(=O)Nc1cccc(F)c1,0.99,0.08
COc1ccccc1OCC(=O)O,1.9,/
CCc1nc(SCC(=O)Nc2ccc(C(=O)O)cc2)n[nH]1,0.01,0.18
NC(=O)Cn1c(=O)n(Cc2ccccc2)c(=O)c2cccnc21,0.14,0.67
Cc1cc(=O)[nH]c(SCCCOc2ccc(F)cc2)n1,1.7,0.35
Brc1ccc2oc3c(N4CCOCC4)ncnc3c2c1,0.83,-0.63
CC(=O)N1CCc2cc(Br)cc(S(=O)(=O)N3CCCCCC3)c21,0.62,0.01
C[C@H](NC(=O)c1nc[nH]c1C(=O)NC(c1ccccc1)c1ccccc1)C(=O)OC(C)(C)C,0.24,-1.8
COc1ccc(NC(=O)CSc2nnc(-c3ccc(C)cc3)n2N)cc1,0.09,-0.92
CCCCc1nc2n[nH]c(N)c2c2c1CCCC2,0.32,-0.14
CCN1CCN(CCC(=O)Nc2cc(C)ccc2C)CC1,0.92,-1.7
COCCN(C(=O)CNC(=O)c1ccco1)C(C(=O)NC1CCCCC1)c1cccs1 (configuration not stated),0.09,-2.4
CCOC(=O)CSc1nnc(-c2cccnc2)o1,1.2,0.59

A different layout for 3 compounds above.
Results follow in this order: KCNQ2 pot, KCNQ2 pot baseline
CCOc1cccc(OCCOCCN(C)C)c1
→ 0.59, -0.05
CC(=O)N1CCc2cc(Br)cc(S(=O)(=O)N3CCCCCC3)c21
→ 0.62, 0.01
c1ccc(-n2nnc3ccccc32)nc1
→ 0.66, -0.48

Continuation:
smiles,KCNQ2 pot,KCNQ2 pot baseline
CCOc1cc(/C=C2/C(=N)N3N=C(CC)SC3=NC2=O)ccc1OC(=O)c1ccco1,0.69,1.6
Cc1onc(-c2ccccc2Cl)c1C(=O)OCC(=O)Nc1ccc2c(c1)OCO2,8*,0.12*
CCOC(=O)C1CCc2nc3ccccc3c(=O)n21 (configuration not stated),0.1,-0.05
COc1ccc(NC(=O)CSc2nc3scc(C)c3c(=O)[nH]2)cc1,1.2,-0.21
COc1ccc(NC(=O)C(NC(=O)c2ccc(=O)[nH]c2)c2ccc(OC)cc2)cc1 (configuration not stated),0.45,-1.7
Cc1cc(C)cc(NS(=O)(=O)c2ccc3oc(=O)ccc3c2)c1,0.8,-0.42
CCN(CC)C(=O)CC1(c2ccccc2OC)CCOC(C(C)C)C1 (configuration not stated),0.16,-0.37
CCOC(=O)c1cccc(NC(=O)c2cccs2)c1,2.2,0.02
CCCCN(NC(C)=O)c1nc(Cl)nc(NC(C)C)n1,0.84,-0.64
COC(=O)c1nnn(Cc2ccccc2)c1N,1.4,0.39
COc1ccc(CCNC(=O)CSc2nc(-c3ccco3)cc(C(F)(F)F)n2)cc1,0.43,0.84
OCCNc1nc(Nc2ccccc2Cl)nc(N2CCCC2)n1,0.69,-0.02
COc1ccc(CN2C(=O)N(c3ccccc3)C(=O)C2CC(=O)Nc2ccccc2)cc1OC (configuration not stated),0.45,1.4
CCCc1nc2oc(C(=O)c3ccccc3)c(N)c2c2c1COC(C)(C)C2,0.8,0.01
O=C(NCc1ccccc1Cl)c1cccc(OC2CCN(C(=O)C3CC3)CC2)c1,1,-1.6
CCc1nc(SCC(=O)Nc2ccc(F)cc2)c2c(=O)n(C)c(=O)n(C)c2n1,1.2,0.43
Cc1cnc(NC(=O)Cc2cccs2)s1,0.28,-0.02
Cc1csc(NC(=O)C2CCCO2)n1 (configuration not stated),0.98,0.15
